Assay outcomes as filed in PubChem BioAssay.
TAR Tat displ: HIV-1 TAR-Tat binding disruption. HIV-1 TAR RNA, Tat peptide displacement FRET; stronger effect = higher value. z-score (no concentration beside the values). AID 1259389. hit rate 0.6% among 100,000;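 also: score is relative to mean and SD of negative controls; some compounds called inactive have numbers as strong as hits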
CDC25B-CDK2 inh: human CDC25B-CDK2/CyclinA binding inhibition; HTRF CDC25B-CDK2/CyclinA binding, anti-His/anti-Flag; stronger effect = higher value; hit rate 0.72% among 94,000; z-score (test concentration not listed);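 also: score is relative to mean and SD of negative controls; strong numbers were not always called active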
Active calls of the source: *; . = no result given.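 The calls were made as follows: active = z-score from 3 up in half or more of its runs; inactive = the rest.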

Values run as follows: TAR Tat displ | CDC25B-CDK2 inh
1: Cn1cc(NC(=O)Nc2ccc(F)c(Cl)c2)c2ccccc2c1=O
    0.43 | .
2: COc1ccc(C2=NOC(Cn3c(Cc4ccc(Cl)cc4)nc4c3c(=O)n(C)c(=O)n4C)C2)cc1 (configuration not stated)
    0.08 | -2.2
3: O=C(NCCCN1CCOCC1)c1cnn2c3c(cnc12)CCCC3
    -0.45 | .
4: Cc1ccc(NS(=O)(=O)c2ccc3c(c2)CCN3)cc1C
    0.81 | .
5: Cc1ccccc1CSc1ncnc2ccccc12
    . | -2.1
6: CCOC(=O)c1cc(C)n(CC2CCC(C(=O)NC3CCCCC3)CC2)c1C (configuration not stated)
    -0.38 | .
7: COC1(OC)C2(Cl)C(Cl)=C(Cl)C1(Cl)[C@H]1[C@@H]2[C@@H](O)C=C[C@H]1O
    . | 0.01
8: CCC1Sc2ccc(S(=O)(=O)CCC(=O)N3CCCc4ccccc43)cc2NC1=O (configuration not stated)
    0.46 | .
9: O=C(NCC1CCCO1)c1ccc2c(c1)NC(=O)C(CS(=O)(=O)Cc1ccc(F)cc1)N2 (configuration not stated)
    2.2 | .
10: CN1C(=O)C(C)(C)c2cc(S(=O)(=O)N3CCC(N(C)CC4CCCO4)CC3)ccc21 (configuration not stated)
    -0.08 | .
11: CN(C)CCCN(C(=O)c1ccc(Br)cc1)c1nc2c(F)cccc2s1
    0.38 | .
12: CCCOC(=O)C1=C(C)NC2=C(C(=O)CCC2)C1c1ccc(O)c(OC)c1 (configuration not stated)
    2.1 | -3.6
13: CCSc1nnc2c3c4c(sc3nc(C)n12)CCCC4
    . | 0.91
14: Cc1cc(N2CCN(C)CC2)n2nc(C)c(-c3ccc(Cl)cc3)c2n1
    . | -2
15: Cc1cccc(N2CSC3=C(C#N)C(c4ccccc4Cl)CC(=O)N3C2)c1 (configuration not stated)
    0.81 | 0.48
16: O=[N+]([O-])c1ccc(NN=C(C2CC2)C2CC2)c([N+](=O)[O-])c1
    . | -0.64
17: CCn1nnc2cc(-c3noc(C(C)NC(=O)c4ccco4)n3)ccc21 (configuration not stated)
    1.3 | .
18: COc1cccc(C(=O)OCc2cc(=O)n3nc(C4CCCCC4)sc3n2)c1
    0.07 | .
19: Oc1cccc(Nc2cc(-c3ccccc3)ncn2)c1
    0.13 | 1.1
20: CN1C(=O)c2ccccc2C(C(=O)Nc2cc(F)ccc2F)C1c1cccs1 (configuration not stated)
    3.5 | .
21: O=C(O)c1ccc2nc(-c3ccccc3)sc2c1
    -0.27 | 2.1
22: CCCCN(Cc1ccco1)C(=O)Cn1ncc2c([nH]c3ccccc32)c1=O
    1.2 | .
23: O=C1C2CC(O)CN2C(=S)N1c1ccccc1 (configuration not stated)
    . | -1.5
24: O=C(Nc1ccccc1)Nc1ccc2nnsc2c1
    . | 1.7
25: Cc1cc2ncn(CC(O)COc3ccc(F)cc3)c2cc1C (configuration not stated)
    . | -1
26: CC(C)(C)C1CCc2c(sc3nc(CCC(=O)NCc4cccs4)[nH]c(=O)c23)C1 (configuration not stated)
    0.65 | .
27: Fc1ccc(CN(C2=NCCN2)c2c(Cl)cccc2Cl)cc1
    . | -1.9
28: COc1cc(C2NC(C(=O)O)Cc3c2[nH]c2ccccc32)cc(OC)c1OC (configuration not stated)
    . | -0.71
29: C=C(C)Cn1c(CCNC(=O)c2ccco2)nc2ccccc21
    1.4 | -0.47
30: Nc1cccc(-c2nnc(Cc3ccc4c(c3)OCO4)o2)c1
    1.1 | .
31: COc1cc(/C=c2\sc3nc4c(C)cc(C)cc4n3c2=O)cc(Br)c1O
    . | -2.5
32: O=C(CCCN1C(=O)c2cccnc2Sc2ccccc21)NCCCN1CCOCC1
    0.24 | .
33: Cc1nc2nc(N3C(=O)CCC3=O)[nH]n2c(=O)c1C
    0.34 | -0.83
34: O=C(NCC(c1ccco1)N1CCCC1)c1cc(-c2cccs2)on1 (configuration not stated)
    -1.2 | -1.8
35: CCCCCCCn1c(CN2CCOCC2)nc2c1c(=O)n(C)c(=O)n2C
    0.61 | -2.5
36: CC(C)n1c(SCC(=O)c2c[nH]c3ccccc23)nnc1-c1ccc2c(c1)OCCCO2
    2 | .
37: Cc1scc(CN2CCN(Cc3ccccc3)CC2)c1C
    1.7 | .
38: Cc1scc(CN2CCN(Cc3ccc4c(c3)OCO4)CC2)c1C
    1.4 | .
39: C=CCn1c(SCC(C)=O)nc2sc3c(c2c1=O)CCC3
    . | 0.35
40: C=C/C(=C\C1=C(C)Sc2ccccc2N1CCCN(C)C)C(F)(F)F
    -0.97 | .
41: O=C(c1ccccc1Cl)N(Cc1ccccc1F)C1CCS(=O)(=O)C1 (configuration not stated)
    1.9 | -2.4
42: O=C(NCCN1CCc2ccccc2C1)Nc1cccc2c1CCCC2
    -0.96 | -0.87
43: Cc1c(C)c2c(c(C)c1O)CCC(C)(CCCC(C)CCCC(C)CCCC(C)C)O2 (configuration not stated)
    0.82 | .
44: COc1ccc(C)cc1Nc1cc(C)nc2nc(-c3ccco3)nn12
    -5.7 | .
45: Nc1nc2c(ncn2C2C[C@H](O)[C@@H](CO)O2)c(=O)[nH]1 (some centres not stated)
    -0.13 | .
46: Cc1cc(-n2cnc3ccccc32)n2c(nc3ccccc32)c1C#N
    . | -3.5
47: CCOCCCN(Cc1ccco1)C(=O)c1cc2c(Cl)nc3ccccc3c2s1
    . | -1
48: NC(=O)c1cc2n(n1)C(C(F)(F)F)CC(c1ccco1)N2 (configuration not stated)
    0.4 | 1.7
49: Cc1csc(NC(=O)C2CCCN(S(=O)(=O)c3ccc4[nH]c(=O)oc4c3)C2)n1 (configuration not stated)
    0.67 | .
50: CCN(CC)c1nn2c(=O)c(C(=O)NCC3CCCO3)cnc2s1 (configuration not stated)
    1 | .

4 records drawn at random from the list so far:
Values run as follows: TAR Tat displ | CDC25B-CDK2 inh
37: Cc1scc(CN2CCN(Cc3ccccc3)CC2)c1C
    1.7 | .
20: CN1C(=O)c2ccccc2C(C(=O)Nc2cc(F)ccc2F)C1c1cccs1 (configuration not stated)
    3.5 | .
50: CCN(CC)c1nn2c(=O)c(C(=O)NCC3CCCO3)cnc2s1 (configuration not stated)
    1 | .
9: O=C(NCC1CCCO1)c1ccc2c(c1)NC(=O)C(CS(=O)(=O)Cc1ccc(F)cc1)N2 (configuration not stated)
    2.2 | .

One compound at a time, from the list above. Order of screens: TAR Tat displ	CDC25B-CDK2 inh
Cc1csc(NC(=O)C2CCCN(S(=O)(=O)c3ccc4[nH]c(=O)oc4c3)C2)n1 (configuration not stated) is entered as 0.67	.
NC(=O)c1cc2n(n1)C(C(F)(F)F)CC(c1ccco1)N2 (configuration not stated) is entered as 0.4	1.7
O=C(NCCN1CCc2ccccc2C1)Nc1cccc2c1CCCC2 is entered as -0.96	-0.87
O=C(c1ccccc1Cl)N(Cc1ccccc1F)C1CCS(=O)(=O)C1 (configuration not stated) is entered as 1.9	-2.4

The listing continues.
Values run as follows: TAR Tat displ | CDC25B-CDK2 inh
51: CC(C)Cc1ccc(S(=O)(=O)N2CCc3ccccc3C2)cc1
    . | -0.91
52: O=S(=O)(NCc1ccccc1)c1cccc(S(=O)(=O)c2ccc(Br)cc2)c1
    1.4 | -1.2
53: Cc1cc2n(n1)CCC(=O)N2CCCC(=O)NC1CCCC1
    0.1 | .
54: CC(=O)N1N=C(c2cc(-c3ccccc3)nc3ccccc23)OC1c1ccc(C(=O)O)cc1 (configuration not stated)
    1.1 | .
55: NC(=O)Cn1c(=O)n(-c2ccc(Cl)cc2)c(=O)c2c3c(sc21)CCCC3
    . | -2.1
56: CC1=C(C(N)=O)C(c2ccc(O)cc2)n2ncnc2N1 (configuration not stated)
    -1.9 | -1.1
57: CC(NC(=O)OC(C)(C)C)C(=O)Oc1ccc2c(c1)oc(=O)c1ccccc12 (configuration not stated)
    . | -2.6
58: COc1ccc(OCc2nnc3n2N=C(c2ccc(C)cc2)CS3)cc1
    0.83 | 1.4
59: Cc1csc(NC(=O)CCc2nnc3ccc(N4CCCC4)nn23)n1
    0.14 | .
60: CCc1cc2c(cc3n2CC(C)(C(=O)NC2CCCCC2)N(Cc2ccco2)C3=O)s1 (configuration not stated)
    1.6 | -1.2

A second format for three compounds above:
| nr | Structure | TAR Tat displ | CDC25B-CDK2 inh |
| --- | --- | --- | --- |
| 56 | CC1=C(C(N)=O)C(c2ccc(O)cc2)n2ncnc2N1 (configuration not stated) | -1.9 | -1.1 |
| 59 | Cc1csc(NC(=O)CCc2nnc3ccc(N4CCCC4)nn23)n1 | 0.14 | . |
| 54 | CC(=O)N1N=C(c2cc(-c3ccccc3)nc3ccccc23)OC1c1ccc(C(=O)O)cc1 (configuration not stated) | 1.1 | . |

(continued)
Values run as follows: TAR Tat displ | CDC25B-CDK2 inh
61: COc1cccc(Cn2cc3c(-c4ccccc4)nnc-3c3cc4c(cc32)OCCO4)c1
    0.08 | -1.3
62: Cn1cc(S(=O)(=O)N2CCc3ccccc32)cc1C(=O)Nc1ccc(Cl)cc1F
    1.8 | 1.3
63: CCc1nn2c(=O)cc(COc3ccccc3)nc2s1
    -1 | -1.3
64: CCN1CCN(CCCNC(=O)c2c(N3CCCC3=O)c3cc(F)ccc3n2CC)CC1
    0.72 | .
65: CC(C)CC(C)(SCC(=O)O)SCC(=O)O
    . | -1.8
66: Cn1c(SCc2nc(-c3cccs3)no2)nnc1-c1ccncc1
    2.4 | -1.7
67: CCOc1ccc(-c2noc(-c3nnn(-c4ccccc4OCC)c3N)n2)cc1
    1.2 | .
68: CCN1CCN(CCNC(=O)C2=Cc3cc(Br)ccc3OC2)CC1
    1.1 | .
69: CN(C)c1ccc(C2C3=C(CC(C)(C)CC3=O)Nc3cc4c(cc32)OCO4)cc1 (configuration not stated)
    -3.9 | -0.7
70: CCCCNC(=O)O/N=C/c1csc([N+](=O)[O-])c1
    . | -2.3
71: O=c1[nH][nH]c(=O)n1CCCc1cc2cccc3ccc4cccc1c4c32
    . | -2.3
72: COc1ccccc1-c1nc(=S)c(C(C)=O)c(C)[nH]1
    . | 0.1
73: CCCC(=O)Nc1ccc2nc(SCc3cc(=O)n4nc(C)sc4n3)sc2c1
    0.47 | .
74: COc1ccc(NS(=O)(=O)c2c(C)nc3sccn3c2=O)c(OC)c1
    0.92 | .
75: CCOc1ccc(C2c3c([nH][nH]c3=O)CC(C)(O)C2C(=O)OC)cc1 (configuration not stated)
    2.5 | -2.4
76: CCOCCCN1C(=O)c2ccc(-c3ccco3)n2CC1(C)C(=O)NC1CCCCC1 (configuration not stated)
    -0.47 | .
77: CCc1ccc2c(c1)c(=O)c(S(=O)(=O)c1ccc(C)cc1)cn2CC
    2.1 | -2.1
78: Cc1cc(C)n2nc(CNS(=O)(=O)c3ccc(Cl)cc3)nc2n1
    -0.48 | 0.14
79: Cc1cc(NC(=O)c2c(-c3ccccc3)c(-c3ccccc3)nn(C)c2=O)no1
    0.4 | -1.7
80: NC(=O)c1ccccc1NC(=O)C(c1ccccc1)N1Cc2ccccc2C1=O (configuration not stated)
    -0.36 | .
81: CCCCNC(=O)c1c2c(nn1C)-c1ccccc1SC2
    -0.17 | 0.1
82: CC1(C)Cc2c(sc(NC(=O)C(=O)O)c2C(=O)O)CO1
    -0.5 | -0.79
83: Cc1nn(-c2ccc(N3CCCC3)nn2)c(C)c1CCC(=O)NCCCc1ccco1
    -0.52 | .
84: Clc1ccc2nc(N3CCN(Cc4ccccc4)CC3)c3nncn3c2c1
    0.96 | -1.1
85: O=C(NCCCN1CCCC1=O)c1[nH]nc2c1COc1ccccc1-2
    -0.93 | .
86: CC1(C)Cc2ccccc2-c2[nH]c(=O)n(C3CCCCC3)c(=O)c21
    2 | -2.6
87: COc1ccccc1CNc1nc2ccccc2n1CCN1CCOCC1
    1.1 | -1.2
88: Cc1ccc(-c2c(Nc3ccc(C)c(C)c3)c(=O)c2=O)cc1
    2.4 | .
89: CC(C)Nc1nc(N2CCN(C(=O)c3ccco3)CC2)nc2c1cnn2C
    1.9 | .
90: COc1cc(=O)n(C)c2c(OCC(O)C(C)(C)O)cccc12 (configuration not stated)
    -0.33 | .
91: COc1ccc(/C=C/c2nc(-c3ccccc3O)n[nH]2)cc1O
    . | -0.09
92: Cc1cc2n(n1)CCC(=O)N2CCCC(=O)NCCCN1CCCC(C)C1 (configuration not stated)
    1.1 | .
93: COc1cc2cc(C)nc(Cc3cccc4ccccc34)c2cc1OC
    1.4 | -2.1
94: Cc1cc(C)c2c(CC(=O)NCc3ccc4c(c3)OCO4)coc2c1
    0.02 | 0.55
95: O=C(CSCc1cnn(-c2ccccc2)c1-n1cccc1)N1CCN(c2cccc(Cl)c2)CC1
    1.7 | -2.8
96: Cc1cc(=O)oc2cc(OS(=O)(=O)c3cc(C(F)(F)F)cc(C(F)(F)F)c3)c(Cl)cc12
    . | -0.04
97: CC1CC(C)CN(CCCNC(=O)Cn2ncn3cccc3c2=O)C1 (configuration not stated)
    1.4 | -0.95
98: CCOc1ccc(-c2cn3nc(CC)sc3n2)cc1
    1.2 | -0.06
99: Cn1c(CCc2ccc(NS(=O)(=O)c3ccc(F)cc3)cc2)nc2ccccc21
    2.1 | .
100: COc1cc2c(cc1OC)C(C)N(C(=O)c1ccc3c(=O)n4c(nc3c1)CCCCC4)CC2 (configuration not stated)
    . | -1.4
101: Cc1nn(CCCC(=O)N2CCN(c3ccccn3)CC2)c(=O)c2cc3occc3n12
    1.7 | -1.7
102: CC1CC(C)CN(c2ncc3c(n2)CC(c2ccc(Cl)cc2)CC3=O)C1 (configuration not stated)
    0.8 | -0.06
103: Cc1ccc(-n2c(C)c(C)c3c(Cl)ncnc32)cc1
    0.9 | -0.41
104: Cc1nn(C(C)C(=O)NC2CCCCC2)c(=O)c2c1sc1ccccc12 (configuration not stated)
    1.7 | -2.2
105: O=[N+]([O-])c1cccnc1NCc1cccnc1
    0.01 | 0.74
106: CCOC(=O)N1CCN(c2c(Nc3cc(C)[nH]n3)c(=O)c2=O)CC1
    -2 | -2.5
107: O=c1[nH]nc(-c2ccc(F)cc2)c2c1Nc1nnnn1C2c1cccc(Br)c1 (configuration not stated)
    1.2 | -1.5
108: CCOC(=O)c1sc(SCc2ccc(Cl)cc2)nc1C
    . | -2.2
